PABP polyA inh: PABP-poly(A) binding inhibition; P11940; PABP-poly(A) RNA binding, fluorescence polarization; inhibition, % at 35 µM; actives 1% (n = 290,000);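 active means 50% or more with normal probe brightness, or confirmed in later tests; about a fifth of its hits are not listed in these tables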;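 further: calls also rest on retests at 20 µM and on dose response follow-up; controls were probe without protein and protein plus probe with vehicle; some compounds called inactive have numbers as strong as hits; many hits fall short of the cut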
Target sequence (P11940 whole entry, looked up): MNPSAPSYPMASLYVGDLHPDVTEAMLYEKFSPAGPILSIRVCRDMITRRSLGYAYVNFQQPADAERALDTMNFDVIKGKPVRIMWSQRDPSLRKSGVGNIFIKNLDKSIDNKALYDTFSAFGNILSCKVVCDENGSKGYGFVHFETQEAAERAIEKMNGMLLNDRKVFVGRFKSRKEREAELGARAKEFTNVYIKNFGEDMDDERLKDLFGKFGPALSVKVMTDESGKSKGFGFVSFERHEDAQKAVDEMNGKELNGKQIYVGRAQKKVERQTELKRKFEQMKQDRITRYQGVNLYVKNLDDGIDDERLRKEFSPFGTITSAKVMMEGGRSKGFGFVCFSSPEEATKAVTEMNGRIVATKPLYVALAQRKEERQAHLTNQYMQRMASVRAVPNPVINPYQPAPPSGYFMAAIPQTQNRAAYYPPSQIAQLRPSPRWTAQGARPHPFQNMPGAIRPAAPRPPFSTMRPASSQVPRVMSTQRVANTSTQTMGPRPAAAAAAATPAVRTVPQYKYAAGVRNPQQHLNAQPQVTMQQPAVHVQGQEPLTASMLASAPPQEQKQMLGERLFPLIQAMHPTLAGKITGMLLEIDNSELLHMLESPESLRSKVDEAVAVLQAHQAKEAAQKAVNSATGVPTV
MT1-MMP act inh: MT1-MMP (human) activation inhibition; P50281; HT1080 RFP-PRO-GFP cells, GFP/RFP ratio fluorescence, overnight; percent of plate control window, DMSO zero; GFP/RFP ratio change, % at 20 µM; actives 0.061% (n = 360,000); AID 651647;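 active means GFP/RFP ratio change of at least 30% with cell ATP level not reduced by more than half and red fluorescence within 50% of control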; further: strong numbers were not always called active
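system = RFP-PRO-GFP reporter HT1080 cells | dosing = 20 µM single dose, 1% DMSO | timing = overnight cell settling, then overnight compound exposure, 37 °C, 5% CO2 | read-out basis = GFP/RFP fluorescence ratio | controls = DMSO and RFP-L50D-GFP cell wells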
Rce1 inh: inhibitors of yeast Ras-converting enzyme | Q03530 | yeast membranes, quenched prenylated peptide cleavage fluorescence | calls only | actives 0.27% (n = 290,000) | AID 2563;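 active means fall in fluorescence gain of 50% or more versus controls, with final raw signal at or below 3038400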;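 further: plate controls were neutral control wells for no effect and wells lacking membranes for full effect; tested at 10 µM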
Yeast UUG start: alters start codon recognition fidelity in yeast; S. cerevisiae UUG-firefly luciferase reporter, luminescence/redox ratio; AID 602363; activity score, % at 18.7 µM; actives 0.13% (n = 350,000);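 active means replicate mean at a twofold rise or more, about +100% in these data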;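 further: firefly luciferase made from a UUG start codon reports start codon fidelity; reporter light over untreated wells divided by growth signal over untreated wells; some hits fall short of that in this replicate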
eIF4H FP inh: inhibitors of RNA binding by human eIF4H | AID 2012 | actives 0.94% (n = 290,000) | eIF4H fluorescence polarization binding assay | inhibition, % at 35 µM;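 active means 50% or more with normal probe brightness, or confirmed in later tests; about a fifth of its hits are not listed in these tables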;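 further: calls also rest on retests at 20 µM and on dose response follow-up; 0% = protein and probe with vehicle and 100% = probe without protein; strong numbers were not always called active; many hits fall short of the cut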
CSC inhib: cancer stem cell inhibition | cancer stem cell-like cells viability, luminescence | inhibition, % at 7.5 µM | actives 1.1% (n = 300,000);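 active means mean at 75% or more and at least half the replicates too; tested in HMLE shEcad cells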;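 further: 0% = median of negative and 100% = median of positive control wells; the first replicate is given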
HIV Env fusion: blocks HIV Env-driven cell-cell fusion; HeLa-JRFL Env/CEM21 cell fusion, luciferase; inhibition, % at 12.3 µM; actives 1.1% (n = 360,000); AID 651610;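 active means mean replicate inhibition score of at least 50 and every replicate individually at or above 50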;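 further: 0% = plate neutral controls and 100% = maraviroc near 300 nM; one replicate is shown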
eIF4H FP inh retest: recorded beside eIF4H FP inh, whose call it bears; inhibition, %; compound at 20 µM; confirmation average;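 mean of two retest wells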
PABP polyA inh retest: also measured in PABP polyA inh; calls as there; inhibition, %; compound at 20 µM; confirmation repeats;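 mean of two retest wells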
MT1-MMP act inh RFP: second read-out of MT1-MMP act inh, no call of its own (marks repeat the call); RFP signal change, %; measured here: RFP expression control read;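 0 = vehicle wells; hits needed this value within 50% of zero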
Starred values were filed as active, the others as inactive; i = inactive; x = not tested or not shown; & = joins results of further samples; [ ] = dose if it differs, or a comment.

SMILES | PABP polyA inh | MT1-MMP act inh | MT1-MMP act inh RFP | Rce1 inh | Yeast UUG start | eIF4H FP inh | CSC inhib | HIV Env fusion | others
Cc1ccc(C(=O)CSc2nnc(-c3ccncc3)n2C)cc1 | -5.9 | 3.9 | -2.8 | i | x | -6.3 | -2.2 | -1.8
CCOc1cc(C(=O)NC2=NCCS2)cc(OCC)c1OCC | 8.2 | 2.2 | 1.0 | i | x | -9.5 | 5.8 | 2.1
COCCCNC(=O)C1CC(=O)N(Cc2ccc(OC)cc2)C1 (stereo not given) | 2.3 | -4.3 | 2.8 | i | -6.5 | 3.8 | 14.8 | -29.8
C=CCN(c1ccccc1)S(=O)(=O)c1cccc(C(=O)NCC2CCCO2)c1 (stereo not given) | 47.1 | 0.4 | -1.8 | i | -12.5 | 13.8 | -16.8 | -8.0
CC(C)(C)NC(=O)c1ccc(COc2ccc(Cl)cc2Cl)o1 | 13.7 | 4.8 | -9.9 | i | -16.9 | -6.0 | x | 8.7
O=C(c1ccc(F)c(S(=O)(=O)N2CCOCC2)c1)N1CCN(c2ncccn2)CC1 | x | -2.6 | 1.1 | x | -14.0 | x | 2.4 | x
C=CCOC(=O)C1C(=O)CC(C)(O)C(C(=O)OCC=C)C1c1ccc(OCC)cc1 (stereo not given) | 3.0 | 1.1 | 3.8 | i | x | -0.2 | -17.1 | x
CCCCN(CCCC)CC(O)COc1ccc(Br)cc1 (stereo not given) | -6.1 | 2.3 | 6.5 | i | -1.1 | -2.4 | 5.1 | -29.9
CCCCCC(=O)Nc1cc2[nH]c(=O)cc(COC)c2cc1C | -20.3 | -0.2 | -0.7 | i | -3.7 | 0.8 | -3.2 | -15.4
CC(C)[C@H](NC(=O)c1ccc([N+](=O)[O-])cc1Cl)C(=O)N1CCN(C/C=C/c2ccccc2)CC1 | x | 0.8 | -15.2 | x | x | x | -3.6 | 5.0
c1ccc(-c2nc(C3CCCCC3)no2)cc1 | -7.1 | -4.2 | -1.4 | i | -2.2 | -3.2 | -2.6 | -85.2
CC(=O)Nc1ccc(C(=O)N2CCCC(c3cc(C(=O)Nc4ccccc4)no3)C2)cc1 (stereo not given) | x | -6.2 | -4.2 | x | -3.0 | x | x | -19.6
NNC(=O)c1ccc(COc2ccccc2)cc1 | 13.5 | 0.8 | 5.7 | i | -23.3 | 1.1 | 0.6 | -0.1
Clc1cccc(Cl)c1Cn1c(-c2cccnc2Cl)nc2ccccc21 | 3.4 | -9.8 | -4.4 | i | -23.4 | -2.5 | -14.8 | x
O=CNCCCc1nc2ccccc2n1Cc1cccc2ccccc12 | -6.8 | -0.6 | -3.8 | i | -5.5 | -13.8 | -8.6 | 27.9
Cc1ccc(C(=O)NC(=S)Nc2nc(-c3cccc([N+](=O)[O-])c3)cs2)c(Cl)c1 | 2.1 | -2.2 | -3.4 | i | x | -10.7 | 3.7 | 14.0
O=C(Nc1ccc(Br)cc1Cl)c1ccc(OCC2CCCO2)cc1 (stereo not given) | x | -0.2 | -7.0 | x | -7.2 | x | x | -32.5
Cc1cccc(OC(=O)CCN2C(=O)C3C4C=CC(C5CC45)C3C2=O)c1C (stereo not given) | 10.7 | -2.4 | 0.9 | i | x | -7.6 | -15.2 | 18.4
O=C(NCc1cccs1)c1ccc(CS(=O)Cc2ccc(Cl)cc2)o1 (stereo not given) | x | 2.0 | 0.3 | x | -4.1 | x | x | 26.9
Cc1cc(C)n(CCc2nc(-c3ccc(C(C)(C)C)cc3)cs2)n1 | -0.9 | -4.4 | -23.7 | i | -13.4 | -7.2 | 21.3 | 12.4
Cc1oc2c(c1C(=O)NCc1cc(C(=O)O)co1)CCCC2 | 1.1 | 1.3 | 0.9 | i | -12.1 | -3.4 | x | -11.0
CCn1c(SCC(=O)Nc2nnc(C)s2)nnc1-c1ccco1 | 5.3 | 11.7 | 3.4 | i | -20.1 | -3.4 | 0.7 | x
Cn1c(=O)n(C)c2cc(C(=O)Nc3ccc(Br)cc3)ccc21 | -4.2 | 16.0 | 3.8 | i | 1.2 | 2.4 | 6.8 | 13.9
Cc1cc(C(=O)CSc2nc(N)cc(=O)[nH]2)ccc1F | 3.3 | -0.6 | -6.7 | i | -17.0 | -6.7 | 3.6 | -10.3
CCCCc1ccc(NC(=S)NCCc2ccc(F)cc2)cc1 | -3.9 | 3.6 | 3.1 | x | -24.1 | 0.2 | 56.5 | 15.8

(next part)
SMILES | PABP polyA inh | MT1-MMP act inh | MT1-MMP act inh RFP | Rce1 inh | Yeast UUG start | eIF4H FP inh | CSC inhib | HIV Env fusion | others
CC(C)c1ccc(CN(C)C(=O)c2ccc(S(=O)(=O)NCc3ccco3)cc2)cc1 | x | -2.6 | -29.5 | x | 13.2 | x | x | 5.7
Nc1nc2ccc(Oc3ccccc3)cc2s1 | 5.7 | -0.3 | -2.0 | i | -39.9 | 2.3 | x | x
NS(=O)(=O)c1cccc(NS(=O)(=O)c2cccc(C(F)(F)F)c2)c1 | -8.2 | -2.7 | 5.4 | i | -17.8 | 3.2 | -18.6 | 0.3
CC1(C)CC(NCc2ccccc2)CCO1 (stereo not given) | -4.4 | -1.5 | 4.1 | i | 1.4 | -8.9 | -5.6 | 1.9
COc1c(S(=O)(=O)NCCN2CCOCC2)ccc(Cl)c1Cl | -6.9 | 4.6 | 7.5 | i | -14.7 | -0.9 | 2.2 | x
C[C@H]1CN([C@@H](C)CO)S(=O)(=O)c2ccc(Br)cc2O[C@@H]1CN(C)S(=O)(=O)c1ccccc1F | x | 5.1 | 5.8 | x | 13.4&4.6 | x | x | 20.8[16.7 µM]
CCOC(=O)c1sc2cc([N+](=O)[O-])cc(SCC(C)C)c2c1N | 42.3 | -282.5 | 1.8 | i | -12.5 | 29.4 | x | -26.5
COc1ccc2c(CN3CCN(c4ccc(Cl)c(Cl)c4)CC3)cc(=O)oc2c1 | x | 6.2 | -9.8 | x | -21.7 | x | x | 7.2
O=C(c1nc2ccccn2c1CN1CCCC(O)C1)N1CCN(C2CCCCC2)CC1 (stereo not given) | 27.6 | -4.2 | 5.0 | i | -11.6 | 22.4 | -6.1 | x
OCC1(O)OC[C@@H](O)[C@H]1O (stereo not given in full) | 8.5 | 1.8 | 3.3 | i | -3.7 | -8.3 | -8.9 | x
CN(C)CCCN(C(=O)c1ccc(S(=O)(=O)N(C)C)cc1)c1nc2ccc(F)cc2s1 | 1.2 | 1.6 | 3.9 | i | x | 5.6 | -11.2 | -9.9
Cc1ccc(Cl)cc1NC(=O)c1ccccc1OCC(=O)Nc1ccc(Cl)cc1 | -4.9 | -2.5 | -6.5 | i | x | -0.1 | 78.0* | 19.7
Cc1ccc([N+](=O)[O-])cc1S(=O)(=O)NCCc1cn2ccccc2n1 | 0.3 | 5.0 | 2.1 | i | -1.0 | -4.3 | -20.3 | -2.1
CCN(CC)C(=O)Cn1c(=O)n(C)c2ccccc21 | 6.6 | -2.2 | 1.0 | i | 11.2 | 1.9 | 4.9 | 20.2
Cc1c(C)c2c(c(C)c1O)CCC(C)(C(=O)O)O2 (stereo not given) | x | -0.8 | 1.4 | x | 3.3 | x | -13.0 | -5.3
CC(=O)Nc1ccc(Nc2ccc3c4c(cc(=O)n3C)-c3ccccc3C(=O)c24)cc1 | 15.0 | 11.3 | 5.4 | i | x | 80.2 | 5.5 | 27.7 | eIF4H FP inh retest=-6.8;PABP polyA inh retest=7.5
COc1ccc(CCNC(=O)C(=O)NCC2OCCCN2S(=O)(=O)c2cc(C)ccc2C)cc1 (stereo not given) | -2.8 | -1.2 | -7.0 | i | -0.3 | 4.8 | 4.5 | 14.4
CN(C)CCN1C(=O)C(=O)/C(=C(/O)c2ccccc2)C1c1ccccc1F (stereo not given) | -7.2 | 0.0 | 1.1 | i | -16.5 | -7.0 | -13.0 | x
COc1ccc(CCNC(=O)CCC(=O)NC2CCCCC2)cc1OC | -5.4 | 0.5 | 3.5 | i | -19.2 | -14.2 | -0.9 | 3.5
Cc1ccc(-c2cc(=O)c3ccc(Cl)cc3[nH]2)cc1 | -3.0 | 1.9 | 5.4 | i | -14.9 | -5.6 | 19.3 | 14.7
CCNc1[nH]c(=O)n(C)c(=O)c1N=O | 12.4 | -2.4 | 9.2 | i | 17.9 | 1.6 | x | 4.5
CCOP(=O)(c1ccccc1)C(O)c1ccc([N+](=O)[O-])cc1 (stereo not given) | -6.9 | 2.1 | 4.0 | i | -6.1 | -0.9 | 6.4 | -11.2
Cc1ccc(Cl)cc1N(CC(=O)NC1CCCC1)C(=O)c1csnn1 | 8.1 | 5.6 | 5.4 | i | -4.0 | -0.1 | -6.5 | 9.9
Cc1ccc(N2CCN(C(=O)c3cn(CC4CCCCC4)nn3)C(C)C2)cc1 (stereo not given) | 6.2 | -3.3 | -4.8 | i | 5.8 | -6.6 | 21.4 | x
O=C(CSc1nnc2c(n1)[nH]c1ccc(F)cc12)NC1CC1 | -3.7 | -7.2 | -6.6 | i | -1.9 | -6.0 | -5.4 | -11.3

Two successive compounds out of the list so far, quoted:
SMILES | PABP polyA inh | MT1-MMP act inh | MT1-MMP act inh RFP | Rce1 inh | Yeast UUG start | eIF4H FP inh | CSC inhib | HIV Env fusion | others
CC(C)c1ccc(CN(C)C(=O)c2ccc(S(=O)(=O)NCc3ccco3)cc2)cc1 | x | -2.6 | -29.5 | x | 13.2 | x | x | 5.7
Nc1nc2ccc(Oc3ccccc3)cc2s1 | 5.7 | -0.3 | -2.0 | i | -39.9 | 2.3 | x | x

(cont.)
SMILES | PABP polyA inh | MT1-MMP act inh | MT1-MMP act inh RFP | Rce1 inh | Yeast UUG start | eIF4H FP inh | CSC inhib | HIV Env fusion | others
Cc1ccc(S(=O)(=O)N2CCN(C(=O)CSc3nc4ccccc4c(=O)[nH]3)CC2)cc1 | x | 0.4 | 7.3 | i | -9.5 | x | -9.1 | 19.7
O=C(c1ccccc1)c1cccc(NC(=O)C2CC2)c1 | 7.9 | -2.8 | 0.2 | i | -25.0 | -5.9 | -19.5 | -5.3
CNc1ncnc(NC)c1[N+](=O)[O-] | x | 5.1 | 7.3 | x | -13.4 | x | x | -8.3
Cc1ccccc1C(=O)N=c1ccn(-c2nc3ccccc3nc2NS(=O)(=O)c2ccccc2)cc1 | 6.3 | -6.2 | 3.7 | i | -7.1 | -12.4 | -4.8 | -2.1
CCC1CCC(N2CCN(c3ccc(F)cc3)CC2)CC1 (stereo not given) | 10.8 | -3.4 | 4.0 | i | -7.8 | -5.4 | -11.1 | -6.4
CCCn1c(SCC(=O)NC(C)C)nc2sc3c(c2c1=O)CCC3 | -9.1 | -1.7 | -2.0 | i | -3.1 | -8.7 | 0.7 | 3.9
COc1ccc(CNC(=O)c2ccc(CN3CCOCC3)cc2)cc1 | -9.4 | 0.9 | 4.1 | i | -13.1 | -4.5 | -10.7 | -44.7
CCCCc1c(C)[nH]c(=S)[nH]c1=O | 4.0 | 6.1 | -0.2 | i | x | -5.2 | -19.1 | 0.3
CCOC(=O)c1sc(-c2ccc(OC)cc2)cc1N | 3.0 | -2.1 | -1.1 | i | -16.3 | -1.2 | 0.1 | x
CC(=O)N1CCc2cc(S(=O)(=O)NCCC(=O)NC3CCN(Cc4ccccc4)CC3)ccc21 | 0.8 | 0.4 | -4.0 | x | -0.8 | -8.2 | -4.9 | x
COc1ccc(-n2nc(C(=O)NCC(=O)Nc3cc(Cl)c(OC)cc3OC)c3ccccc3c2=O)cc1 | -2.2 | 6.6 | 3.3 | i | -8.8 | -14.0 | 25.7 | -15.5
N#Cc1cc(-c2ccccc2)nc(Oc2ccccc2)n1 | 2.6 | -7.8 | -14.2 | i | x | -9.1 | 10.7 | -1.4
O=S(=O)(c1ccc(-c2ccccc2)cc1)N1CCOCC1 | -0.8 | 1.3 | -3.0 | i | -25.9 | -9.7 | 17.9 | -56.8

Assay outcomes deposited in PubChem BioAssay by several laboratories.
